Compound activity: PubChem BioAssay, ICCB-Longwood Screening Facility, Harvard Medical School
Mtb MenB inh: M. tuberculosis MenB inhibitors, primary screen, biochemical, absorbance; 1,4-dihydroxy-2-naphthoyl-CoA synthase (Mycobacterium tuberculosis (strain ATCC 25618 / …; AID 540299, 2011; MenB enzyme assay, absorbance read-out; some hits fall short of the stated cut; hit rate 0.43% among 100,000; inhibition, %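 (about 12 µg/mL by stock and volumes)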;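 active means mean of two replicates above 30%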;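 further: 0% = no compound and 100% = wells with inactive enzyme; the first replicate is given; strong numbers were not always called active; inactives centre near -10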
Mtb MbtI inh: MbtI salicylate synthase inhibitors, primary screen, biochemical, fluorescence intensity. inhibition, %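 (about 17 µg/mL by stock and volumes)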. purified MbtI enzyme, fluorescence intensity read-out. hit rate 0.89% among 100,000. P9WFX0;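 active means above 50% in both replicates, above 80% if mildly self-fluorescent; inactive means the rest, strongly fluorescent compounds included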;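 further: 0% = mean of negative and 100% = mean of positive controls; one replicate is shown; some compounds called inactive have numbers as strong as hits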
Target sequence (P9WFX0 whole entry, looked up): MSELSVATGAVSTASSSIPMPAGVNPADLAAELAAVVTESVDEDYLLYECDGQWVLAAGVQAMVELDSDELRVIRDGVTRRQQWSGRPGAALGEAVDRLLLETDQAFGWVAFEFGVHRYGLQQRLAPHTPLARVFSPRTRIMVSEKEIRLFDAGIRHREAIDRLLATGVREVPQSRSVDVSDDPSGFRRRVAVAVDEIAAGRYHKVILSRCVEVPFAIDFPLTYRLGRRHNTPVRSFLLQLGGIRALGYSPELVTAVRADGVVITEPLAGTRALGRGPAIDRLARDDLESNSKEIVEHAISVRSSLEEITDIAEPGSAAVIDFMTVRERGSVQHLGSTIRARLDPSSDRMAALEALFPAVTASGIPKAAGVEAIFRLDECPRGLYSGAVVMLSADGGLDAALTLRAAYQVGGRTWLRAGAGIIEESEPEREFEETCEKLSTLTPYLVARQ
PV pol inh: poliovirus RdRp elongation inhibitors, primary screen, biochemical, fluorescence polarization, total intensity. poliovirus polymerase elongation; active compounds read low. % elongation, % (compound at 16.7 µg/mL). hit rate 0.66% among 150,000. AID 588519, 2011; in the data active means % elongation below about 90%; further: some results filed as inactive read as strong as hits
Target sequence (P03300 1749-2209 limits assumed): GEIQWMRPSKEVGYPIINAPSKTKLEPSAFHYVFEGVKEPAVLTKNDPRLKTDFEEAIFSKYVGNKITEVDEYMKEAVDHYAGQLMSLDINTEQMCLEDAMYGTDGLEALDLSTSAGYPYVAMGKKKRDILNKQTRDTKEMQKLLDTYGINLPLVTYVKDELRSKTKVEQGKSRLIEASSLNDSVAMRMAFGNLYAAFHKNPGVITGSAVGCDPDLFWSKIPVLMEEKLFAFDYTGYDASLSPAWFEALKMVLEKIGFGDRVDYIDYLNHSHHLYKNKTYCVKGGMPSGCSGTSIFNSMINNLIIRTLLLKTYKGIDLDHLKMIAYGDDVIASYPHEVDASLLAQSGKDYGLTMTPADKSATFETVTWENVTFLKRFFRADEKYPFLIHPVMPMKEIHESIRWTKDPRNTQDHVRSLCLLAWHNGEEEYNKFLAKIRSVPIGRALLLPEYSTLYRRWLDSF
PV pol inh intensity: further read-out of PV pol inh, marked with its call; % elongation; measured here: total intensity read-out; formula for this scale not given here;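 total fluorescence in place of polarization; lower means less elongation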
* hit, by the source's call; nt = not tested or not shown.

SMILES	Mtb MenB inh	Mtb MbtI inh	PV pol inh	PV pol inh intensity
CSc1cccc(NC(=O)CSc2nnc(COc3ccccc3)o2)c1	-21	0	101	100
C=CS(=O)(=O)C(C)CC(N)=O (configuration not stated)	-13	10	99	108
Nc1[nH]c(=S)sc1C(=O)Nc1nccs1	-99	nt	70*	75*
COc1cccc(/C=N/O)c1O	-5	-6	101	105
COc1ccccc1CNC1CCCCC1C (configuration not stated)	-18	1	98	101
CC(C)C(C(C#N)C#N)C1C(=O)NC(=S)NC1=O (configuration not stated)	-32	2	102	102
CN=c1scc(-c2cc(C)n(CCC(C)C)c2C)n1C	0	-1	104	110
CCCCSc1ccc(NCCC(=O)c2ccco2)cc1	-35	-18	100	103
CN1CCN(c2ncc3c(=S)[nH]c(=S)[nH]c3n2)CC1	-35	-9	103	102
c1ccc2[nH]c(C3CCCO3)nc2c1 (configuration not stated)	-3	-145	103	103
OC(CN1CCOCC1)Cn1c2c(c3ccccc31)CCCC2 (configuration not stated)	nt	-35	101	96
CSC1=NCCN1C(=O)c1cccc(C)c1	-16	1	102	105
COc1ccc(-c2csc(=Nc3cc(C(=O)O)ccc3C)o2)cc1	-14	nt	86*	90*
O=C(CN1C(=O)c2ccccc2C1=O)N1CCCC1	-12	-20	101	102
OCCc1c[nH]c2ccc(OCc3ccccc3)cc12	-8	-6	104	101
N#C/C(=C\NC(=O)c1ccccc1)C(=O)N1CCOCC1	-14	23	102	107
NNC(=O)CNc1ccccc1	-56	-2	99	103
Cc1cc(C)c2c(N)nn(C)c2n1	-20	14	105	102
COC(=O)c1cc(COC(=O)CNC(=O)c2ccc(Br)cc2)oc1C	-20	5	nt	nt
Cc1c(C(=O)NCc2ccco2)cc(-c2ccccc2)n1CCSCc1c(F)cccc1Cl	-34	-4	103	102
Cc1[nH]n(-c2ccccc2)c(=O)c1C=NC(C)C	-28	14	99	104
COC(=O)c1ccc2c(=O)n(CC(C)O)c(SCc3cc(Cl)c4c(c3)OCCO4)nc2c1 (configuration not stated)	13	20	97	100
Cc1cc2nc(COc3ccccc3)cc(=O)n2o1	-21	7	100	102
Cc1cc(C)[nH]c(=S)n1	-19	6	104	106

5 entries from above, reformatted:
| Compound | Mtb MenB inh | Mtb MbtI inh | PV pol inh | PV pol inh intensity |
| --- | --- | --- | --- | --- |
| COc1cccc(/C=N/O)c1O | -5 | -6 | 101 | 105 |
| COc1ccccc1CNC1CCCCC1C (configuration not stated) | -18 | 1 | 98 | 101 |
| CC(C)C(C(C#N)C#N)C1C(=O)NC(=S)NC1=O (configuration not stated) | -32 | 2 | 102 | 102 |
| CN=c1scc(-c2cc(C)n(CCC(C)C)c2C)n1C | 0 | -1 | 104 | 110 |
| CCCCSc1ccc(NCCC(=O)c2ccco2)cc1 | -35 | -18 | 100 | 103 |

(further entries)
SMILES	Mtb MenB inh	Mtb MbtI inh	PV pol inh	PV pol inh intensity
O=C(O)CCc1nnc2n(CCc3ccccc3)c(=O)c3ccccc3n12	1	4	103	105
O=C(c1ccc(Br)cc1)N1CCN(c2ccc(N3CCCCC3)nn2)CC1	10	-5	100	108
CSc1sc(C(=O)Sc2ccccc2)c2c1S(=O)(=O)N(C)c1ccccc1-2	-39	-6	99	109
CC(C)NC(=O)C1CCN(C(=O)C(C(=O)c2ccccc2)n2cc(Cl)ccc2=O)CC1 (configuration not stated)	6	-4	101	101
CSc1nnc(-c2ccccc2)n1-c1ccccc1	-18	nt	103	117
COc1cccc(-c2nc(N)nc(SC)c2C#N)c1	3	9	104	102
CCOC(=O)c1cnc2c(C)cc(Cl)cc2c1NCc1ccccc1	3	nt	111	110
CC(C)N(C(=O)CSc1nnc(-c2cccs2)o1)C(C)C	-22	-106	103	102
COC(=O)c1c(NC(=O)c2ccoc2C)sc2c1CCC(C)C2 (configuration not stated)	-8	72	99	104
COC(=O)/C(=C(/O)CSc1n[nH]c(=O)[nH]c1=O)c1nc2ccccc2[nH]1	-19	4	98	91
CCn1c(C)nc2cc(-c3nnc4n3CCCCC4)ccc21	-9	-12	101	107
Oc1ccccc1/C=N/n1cnnc1	nt	5	102	99
NNC(=O)c1ccc(COc2cc(Cl)ccc2Cl)o1	-6	nt	104	101
CC1(C)CC(=O)C(C=NCC2CCNCC2)=C(O)C1	9	4	103	103
CCOc1ccc2nc(SCC(=O)OC3CCCCC3)c(C)cc2c1	-2	nt	105	107
CC(=O)N(c1ccccc1)c1nc(/C=C/C(=O)N(Cc2ccco2)C2CCS(=O)(=O)C2)cs1 (configuration not stated)	5	-1	103	116
CC1CCCCN1C(=O)c1cc2c(=O)n3ccccc3nc2s1 (configuration not stated)	-2	103	101	99
Cc1ccc(-c2cc(-c3nnco3)c3ccccc3n2)cc1	-18	60	101	108
O=C1CC(c2ccco2)CC(O)=C1C=NCCN1CCN(C2OC(=O)c3ccccc32)CC1 (configuration not stated)	16	5	102	103
CCCCNC(=O)Cn1ncc2c1-c1ccccc1OC2	0	-10	99	100
CN(C)C(=O)COC(=O)c1c2c(nc3ccccc13)CCCCC2	-20	37	93	91
COc1cccc2c1c(NC(=O)c1nccnc1C(=O)O)nn2C	-10	-5	104	102
CCCNC(=O)c1nnc(Cc2cccc(F)c2)o1	-17	12	101	100
O=C(Nc1cccnc1)c1nn(-c2ccccc2)c(=O)c2ccccc12	-14	-40	106	105
CC1(C)NCCC12C(=O)N(Cc1ccccc1)c1ccccc12 (configuration not stated)	-9	nt	108	105
O=C1CCCN1Cc1ncnn1-c1ccccc1	-5	0	102	100
COc1ccccc1NC(=O)Nc1n[nH]c(-c2ccccc2)n1	14	-20	103	97
OC(CNC1CCCC1)c1ccccc1 (configuration not stated)	-26	-11	100	104
Cc1nc2cc(C(F)(F)F)ccc2n1C	nt	-4	102	102
Cc1ccc(S(=O)(=O)N2CCn3c2nc2ccccc23)cc1	3	-6	102	105
COc1ccc(/C=C/C(=O)OC2CCCCC2)cc1	-18	nt	104	98
C/C(=C/C(=O)O)C(=O)Nc1ccc(C)cc1	-2	7	105	105
COc1ccccc1C(=O)OC1OCCOC1OC(=O)c1ccccc1OC (configuration not stated)	-5	-11	109	111
CCCN(CC(=O)Nc1ccc(Cl)cc1Cl)CN1C(=O)NC2(CCCC2)C1=O	-2	-4	100	102
CCC(=O)c1cc(F)ccc1O	nt	0	102	98
CNC(=O)NC(=O)C(C)N1CCc2ccccc2C1 (configuration not stated)	-7	-6	103	105
O=C(COC(=O)c1cccs1)Nc1c(F)c(F)c(F)c(F)c1F	nt	-1	102	107
O=C(Nc1cc(C(F)(F)F)ccc1F)C1CCC1	-15	6	99	101
CCc1cc2c(=O)c(Oc3ccc(F)cc3)coc2c(CN(C)C)c1O	-6	105	106	103
CCn1cc(Br)c(C(=O)N2CCN(c3ccccc3)CC2)n1	5	10	96	98
CSc1ncc(Cl)c(C(=O)Oc2ccccc2F)n1	-8	2	103	103
O=C(CSc1nnc(-c2ccco2)o1)c1cc2c3c(c1)CC(=O)N3CCC2	-20	4	104	110
Brc1ccc(CSc2c[nH]c3ccccc23)cc1	-2	1	102	102
Cc1ccc(CS(=O)Cc2ccc(C(=O)N3CCC(C(N)=O)CC3)o2)cc1 (configuration not stated)	3	-6	101	101
Cc1ccnc(NS(=O)(=O)c2ccccc2)n1	10	-13	100	103
Cc1nc2ncnn2c(C)c1CCC(=O)N1CCCCC1	1	-3	104	100
O=c1nccc(NCc2ccco2)[nH]1	1	-5	103	104
Cc1cccc2cc(C(c3nnnn3Cc3ccccc3)N3CCN(C(=O)c4ccco4)CC3)c(=O)[nH]c12 (configuration not stated)	13	27	100	102
CNC(=S)NNc1nc(N2CCOCC2)nc(N2CCOCC2)n1	1	6	100	100
O=S(=O)(CCN1CCOCC1)c1ccc(OC(F)(F)F)cc1	-1	-3	106	112
Cc1cc(=O)oc2cc(OCC(=O)N3CCCC3)c(Cl)cc12	1	99	103	111
Cc1ccsc1CN1CCN(Cc2ccccc2)CC1	-17	-22	99	102
Cc1ccc(CCNC(=O)c2cccc3c2SCCC3=O)cc1	-27	-4	107	104
Cn1cccc1/C=C/C(=O)OCC(=O)c1ccc(Cl)s1	-9	14	106	101
C=CCn1c(=N)n(CC(O)COc2ccc(C)cc2)c2ccccc21 (configuration not stated)	-11	-3	101	102
CCOC(=O)COc1cc2oc(C)c(-c3nc4ccccc4s3)c(=O)c2cc1CC	2	-9	101	96
O=S(=O)(Cc1ccccc1)c1ccccc1	-11	-16	108	112
NC1=C(C(=O)NC2CC2)C(=NC2CCCCC2)SC1C(=O)Nc1cc(Cl)ccc1Cl (configuration not stated)	6	2	102	104
C=CCNC(=S)Nc1sc2c(c1C#N)CCCC2	0	3	102	107
Cn1cc(C(=O)CSc2nnc(-c3ccoc3)c(-c3ccoc3)n2)c2ccccc21	-38	44	101	100

(next part)
SMILES	Mtb MenB inh	Mtb MbtI inh	PV pol inh	PV pol inh intensity
Cc1csc(SCC(=O)NC(C)c2ccccc2)n1 (configuration not stated)	1	2	100	100
COC(=O)NC1CCCCC1NC(=O)OC (configuration not stated)	10	-10	100	103
O=C1CSC(/N=C/c2ccccc2O)=NN1	-20	nt	116	112
C=CCn1cnnc1SCC1CCCCC1	-5	0	105	108
CC1=CC(C)(C)N2C(=O)C3(N=C(N)NC(Nc4ccccc4)=N3)c3cc(C)cc1c32 (configuration not stated)	4	-9	101	104
Brc1ccc(CNc2ccc(-c3nc4ncccc4o3)cc2)cc1	-21	-186	101	104
CNC(=O)C1CC(=O)N(c2ccc(OC)cc2)C1 (configuration not stated)	-22	-5	107	100
COc1ccc(Oc2coc3cc(OC(=O)c4ccco4)ccc3c2=O)cc1	7	-2	101	104
CN1CCC(N(Cc2ccc3c(c2)OCO3)C(=O)c2cn(Cc3ccccc3)c3ccsc23)CC1	24*	0	104	100
Cn1c(=O)c2c(nc(Sc3nc4ccccc4n3CC(=O)N3CCCCC3)n2C)n(C)c1=O	20	5	101	100
COC(=O)c1cc(S(=O)(=O)N(C)Cc2ccccc2)cn1C	-3	-15	102	103
CC(C)CCNC(=O)c1ccc2c(SCC(=O)O)c3c(nc2c1)CCC3	-5	-6	101	107
CCOC(=O)/C(=N\Nc1ccc(Br)cc1)N1CC(C)OC(C)C1 (configuration not stated)	-39	12	102	106
COc1cccc(C(=O)Nc2ccc(S(=O)(=O)Nc3nccc(C)n3)cc2)c1	-13	-23	105	105
Cc1cc2c(cc1C)NC(=O)c1ccccc1C(c1ccccc1)=N2	0	-6	107	109
O=C(NC1CCCCC1)NC1C2CC3CC(C2)CC1C3 (configuration not stated)	5	-12	101	102
CCCn1ccnc1SCC(=O)NC(=O)NC12CC3CC(CC(C3)C1)C2	-39	-11	103	102
CC(C)CCNC(=O)c1ccc(-n2ccc3ccccc32)s1	-16	99	100	101
O=C(CSC1=NS(=O)(=O)c2ccccc2N1)Nc1ccccc1	-17	0	101	102
CCCCc1ccc(NC(=O)OC)cc1	-4	-15	102	103
Cc1cc(C)cc(C(=O)NCC(=O)O)c1	nt	-7	101	100
CCc1nc2sc(C(c3ccccc3)N3CCCCC3)c(O)n2n1 (configuration not stated)	9	7	98	100
CCN(CC)CC(=O)c1c[nH]c2ccccc12	10	24	103	106
COc1cccc2sc(NC(=O)c3ccc(S(=O)(=O)N4CCCC(C)C4)cc3)nc12 (configuration not stated)	-23	-7	103	110

Whole records, quoted from the list. Screens in order: Mtb MenB inh, Mtb MbtI inh, PV pol inh, PV pol inh intensity
Entry for Cc1ccnc(NS(=O)(=O)c2ccccc2)n1 = 10, -13, 100, 103
Entry for CCN(CC)CC(=O)c1c[nH]c2ccccc12 = 10, 24, 103, 106
Entry for O=C(c1ccc(Br)cc1)N1CCN(c2ccc(N3CCCCC3)nn2)CC1 = 10, -5, 100, 108
Entry for Cc1nc2ncnn2c(C)c1CCC(=O)N1CCCCC1 = 1, -3, 104, 100

Further records
SMILES	Mtb MenB inh	Mtb MbtI inh	PV pol inh	PV pol inh intensity
O=C(Cc1cccs1)Nc1cc(C(=O)O)cc(C(=O)O)c1	-13	-1	101	100
CCn1c(CNC(=O)COc2c(C)cccc2C)nnc1SCC(=O)Nc1ccc(OC)cc1	-31	0	98	101
O=C([C@@H]1CCCN1C(=O)c1cccs1)N1CCN(Cc2ccc3c(c2)OCO3)CC1	-18	-1	109	104
COC(=O)c1ccccc1-c1ccc(/C=C2\C(=O)N(C)C(=O)C(C#N)=C2C)o1	-32	86	99	106
O=S(=O)(NC1CCCCC1SC1=NCCS1)c1ccc(Cl)cc1 (configuration not stated)	-22	-13	100	98
c1ccc2c(C3=NNC(=NC4CCCCC4)SC3)c[nH]c2c1	-32	-5	108	105
COc1ccc(NC(=O)c2ccc3c(c2)OCCO3)cc1	11	7	100	102
NCCCCN1CCCCC1	-46	-1	104	105
CCc1ccc(N2C(=O)N(CC(=O)N(CC)CC)C3CS(=O)(=O)CC32)cc1 (configuration not stated)	7	-9	103	104

2 records picked at random from the list so far:
SMILES	Mtb MenB inh	Mtb MbtI inh	PV pol inh	PV pol inh intensity
COC(=O)c1ccccc1-c1ccc(/C=C2\C(=O)N(C)C(=O)C(C#N)=C2C)o1	-32	86	99	106
CCc1ccc(N2C(=O)N(CC(=O)N(CC)CC)C3CS(=O)(=O)CC32)cc1 (configuration not stated)	7	-9	103	104
